Screening data from PubChem BioAssay.
VDR inh – Inhibitors of the vitamin D receptor (VDR): qHTS | Vitamin D3 receptor (Homo sapiens), P11473 | hit rate 0.93% among 400,000 | Potency, µM, for the others: max response, negative = inhibition, most hits filed as inhibitors | VDR-SRC2-3 peptide fluorescence polarization, 2 h; active = well fitted inhibition curve with a large enough effect; inconclusive = small, poorly fitted or top-dose-only effect, or another doubt; inactive = no such curve, though single readings can be large or run the other way; also: series mostly up to about 120 µM
Target sequence (P11473 whole entry, looked up): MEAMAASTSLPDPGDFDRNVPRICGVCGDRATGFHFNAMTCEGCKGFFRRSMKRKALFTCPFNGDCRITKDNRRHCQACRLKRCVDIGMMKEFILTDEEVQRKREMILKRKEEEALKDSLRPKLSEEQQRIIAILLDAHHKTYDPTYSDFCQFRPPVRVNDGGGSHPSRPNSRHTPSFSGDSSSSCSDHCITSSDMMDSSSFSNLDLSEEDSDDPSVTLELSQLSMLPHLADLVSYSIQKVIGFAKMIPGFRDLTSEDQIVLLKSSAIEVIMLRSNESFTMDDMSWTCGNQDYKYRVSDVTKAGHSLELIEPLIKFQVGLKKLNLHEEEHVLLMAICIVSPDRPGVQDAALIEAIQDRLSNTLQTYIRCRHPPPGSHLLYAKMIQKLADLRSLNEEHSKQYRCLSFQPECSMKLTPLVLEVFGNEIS
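Reagent solutions, kept cold and dark, are dispensed first; compounds are then pinned in at 23 nl, plates briefly spun, and incubated 2 h at ambient temperature. Inhibition of VDR–SRC2-3 peptide binding is read by fluorescence polarization.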
* marks the source's active call; other numbers are inactive results; ? = inconclusive; & = joins results of further samples. % is scaled to controls: 0 for no effect and ±100 for the full control effect; potency is read from the fitted curve at half-maximal effect. Not all compounds are listed; count on the stated rates, not on these rows.

CC(=O)NC(CC(=O)Nc1cc(Cl)ccc1-n1cncn1)c1ccccc1 (configuration not stated)
  VDR inh: 4%

COc1cc(NC(=S)NCCO)c(OC)cc1Cl
  VDR inh: -5%

COc1ccccc1CNC(=O)C(Cc1c[nH]c2ccccc12)NC(=O)OCc1ccccc1 (configuration not stated)
  VDR inh: 3%

O=C(COc1ccc(Br)cc1Cl)NC(=O)NCc1ccccc1
  VDR inh: -23%

CCN1CCCC1CNC(=O)c1cc(N)ccc1OC (configuration not stated)
  VDR inh: -6%

O=C1NC(=S)S/C1=C\c1ccc2ccccc2c1
  VDR inh: 6%

CSCC[C@H](NC(=O)NCc1ccccc1F)C(=O)O
  VDR inh: 2%

CCN(CC)CCNC(=O)c1ccc2c(c1)NC(=O)C(CS(=O)(=O)Cc1cccc(Br)c1)N2 (configuration not stated)
  VDR inh: -1%

Cc1cccc(N(CC(=O)NCCSc2ccccn2)S(=O)(=O)c2ccccc2)c1
  VDR inh: 8%

CCOC(=O)c1[nH]c(C)c(/C(O)=C2\C(=O)C(=O)N(CCN(C)C)C2c2ccc(C)o2)c1C (configuration not stated)
  VDR inh: 5%

CC(C)C[C@H](NC(=O)NCc1ccccc1Cl)C(=O)O
  VDR inh: -6%

CN(CC(=O)Nc1ccc(Cl)c(C(F)(F)F)c1)C(=O)/C=C/c1ccco1
  VDR inh: -6%

CSCCC(NS(=O)(=O)c1ccc2c(c1)OCCO2)C(=O)N(C)Cc1ccc(F)cc1 (configuration not stated)
  VDR inh: -8%

CC(=O)Nc1ccc(/C(N=Nc2ccccc2)=N/N=C(N)N)cc1
  VDR inh: ?

CCC(=O)OC1(C(=O)CCl)[C@@H](C)C[C@H]2[C@@H]3CCC4=CC(=O)C=C[C@]4(C)[C@@]3(F)[C@@H](O)C[C@@]21C (some centres not stated)
  VDR inh: -19%

COc1cccc(C(=O)c2c(C)c(CCC#N)n3ccccc23)c1OC
  VDR inh: 5%

COc1ccc(-c2c(C#N)c(N)nc3c2c(=O)n(C)c(=O)n3C)cc1
  VDR inh: 5%

Cc1cc(C(=O)N/N=C/c2ccc(-c3ccccc3Cl)o2)n[nH]1
  VDR inh: -6%

Cc1sc(C(=O)NCc2cccnc2)c2nc(C)n(CC(=O)NCc3cccnc3)c(=O)c12
  VDR inh: 7%

O=c1ccc(-c2nc3ccccc3n2Cc2ccccc2Cl)c[nH]1
  VDR inh: 3%

COc1ccc(-c2cn[nH]c2N)c(OC)c1
  VDR inh: 2%

O=S(=O)(c1ccc(Br)cc1)N1CCN(c2ccccc2)CC1
  VDR inh: -6%

CN(C)c1ccc(C(=O)NCc2ccc3c(c2)CCN3C(=O)c2ccccc2)cc1
  VDR inh: 6%

O=C(Nc1ccc(F)cc1F)c1cc2n(n1)C(C(F)(F)F)C1CCCCC1N2 (configuration not stated)
  VDR inh: 13%

COc1ccc2c(c1)oc(=O)c1cc(OC)ccc12
  VDR inh: 12%

COC(=O)c1cccc(Nc2c3c(nc4ccccc24)CCC3)c1
  VDR inh: -17%

COc1ccc(CC(=O)Nc2ccc(-c3cn4ccccc4n3)cc2)cc1OC
  VDR inh: 6%

COc1ccc(-c2ccc(CCC(=O)O)n2Cc2ccco2)cc1
  VDR inh: 0%

O=C(CCc1ccccc1)N(Cc1cccnc1)c1nc2c(F)cccc2s1
  VDR inh: 0%

C=CCOc1ccc(CN(C)c2ccc(S(=O)(=O)N3CCN(C)CC3)cc2[N+](=O)[O-])cc1
  VDR inh: -9%

Cc1nn2c(C)nc3sc4c(c3c2nc1=O)CC(C)(C)OC4
  VDR inh: -7%

O=c1cnc(-c2ccc(Cl)cc2)cn1O
  VDR inh: -7%

CC(=O)COC(=O)CCc1nc2ccccc2[nH]c1=O
  VDR inh: -13%

Cc1ccc(N2C(=S)NC3c4ccccc4OC2(C)C3C(=O)N(C)C)cc1 (configuration not stated)
  VDR inh: -4%

C/C(=N\NC(=O)C(O)c1ccccc1)c1cccnc1 (configuration not stated)
  VDR inh: -6%

O=C(CSc1nc2ccsc2c(=O)n1Cc1ccccc1)NCC1CCCO1 (configuration not stated)
  VDR inh: 29%

CC1(C)Cc2nc(-c3ccccc3)nc(SCC(=O)N3CCCC3)c2CO1
  VDR inh: -9%

COc1ccc2c(c1)c1c(c(=O)n(Cc3ccccc3)c(=O)n1CC(=O)Nc1cc(C)cc(C)c1)n2C
  VDR inh: 13%

CSc1ncccc1C(=O)OCC(=O)NCc1cccs1
  VDR inh: 6%

O=C(CCN1C(=O)S/C(=C\c2ccc(F)cc2)C1=O)Nc1ccc(O)cc1C(=O)O
  VDR inh: ?

COc1ccc(N2C(=O)C(CC(=O)Nc3ccc(F)cc3)N(CCc3cccs3)C2=O)cc1 (configuration not stated)
  VDR inh: -4%

COc1ccc(/C=C2/SC(=O)N(CC(=O)Nc3cc(C)on3)C2=O)cc1OC
  VDR inh: -8%

CC(C)C[C@H](NC(=O)[C@H](C)NC(=O)CNC(=O)[C@H](CCCCN)NC(=O)[C@H](CCCN=C(N)N)NC(=O)[C@H](C)NC(=O)[C@H](Cc1ccccc1)NC(=O)[C@@H](N)CCCN=C(N)N)C(=O)N[C@@H](CCCN=C(N)N)C(=O)N[C@@H](CCC(N)=O)C(=O)N[C@@H](CCCCN)C(=O)N[C@@H](CC(N)=O)C(=O)N[C@H](C(N)=O)C(C)C
  VDR inh: 6%

Cc1c(O)cccc1C(=O)N[C@@H](CSc1ccccc1)[C@H](O)CN1C[C@H]2CCCC[C@H]2C[C@H]1C(=O)NC(C)(C)C
  VDR inh: ?

COc1ccc(-n2ncc3c(=O)n(CC(=O)Nc4ccc(S(=O)(=O)N5CCOCC5)cc4)cnc32)cc1
  VDR inh: 4%

Cc1cccc(C)c1NC(=O)CN(C)CC(=O)N(C)CC(=O)Nc1ccccc1Br
  VDR inh: -6%

CCN(CC)C(=O)c1ccc2c(=O)n(Cc3ccc4c(c3)OCO4)c(=S)[nH]c2c1
  VDR inh: -20%

O=C(NCCCN1CCOCC1)Nc1ccc(Cc2ccc(NC(=O)NCCCN3CCOCC3)cc2)cc1
  VDR inh: ?

Cn1c(N2CCC(C(N)=O)CC2)nc2c1c(=O)n(Cc1ccc(Cl)cc1)c(=O)n2C
  VDR inh: -28%

COc1ccc(NC(=O)C(CC(C)C)NC(=O)c2ccccc2C)cn1 (configuration not stated)
  VDR inh: -4%

Cc1cccc(NC(=O)CSc2ncnc3nc[nH]c23)c1
  VDR inh: 8%

Cc1cccc(CC(=O)N2CCN=C2SCc2ccc([N+](=O)[O-])cc2)c1
  VDR inh: -10%

Cc1ccc2c(CN3CCN(Cc4ccccc4)CC3)cc(=O)oc2c1C
  VDR inh: 8%

CCCCC(NC(C)=O)c1nc2ccccc2[nH]1 (configuration not stated)
  VDR inh: -5%

COc1ccc(NS(=O)(=O)c2cccc(C(=O)NNC(=O)c3ccc(O)c(Cl)c3)c2)cc1
  VDR inh: -35%

Cc1ccc(N2C(=O)N3[C@H](c4ccc(F)cc4)[C@@H]4C(=O)N(C5CCCCC5)C(=O)[C@@H]4[C@]3(Cc3ccccc3)C2=O)cc1
  VDR inh: -11%

O=C(CSc1nc2ccccc2c(=O)n1-c1ccccc1)N1CCCC1
  VDR inh: 0%

Cc1cc(C(=O)COC(=O)c2ccc(N)cc2)c(C)n1-c1c(C)n(C)n(-c2ccccc2)c1=O
  VDR inh: -6%

Cc1ccc(OCCNC(=O)c2ccccc2N)cc1
  VDR inh: 10%

COc1ccc(C(=O)CCC(=O)NCc2cc(OC)cc(OC)c2)cc1
  VDR inh: 1%

Some of these compounds in order of length of the SMILES, smallest number first:
Cc1ccc(OCCNC(=O)c2ccccc2N)cc1
  VDR inh: 10%

Cc1cccc(CC(=O)N2CCN=C2SCc2ccc([N+](=O)[O-])cc2)c1
  VDR inh: -10%

O=C(NCCCN1CCOCC1)Nc1ccc(Cc2ccc(NC(=O)NCCCN3CCOCC3)cc2)cc1
  VDR inh: ?

Cc1cc(C(=O)COC(=O)c2ccc(N)cc2)c(C)n1-c1c(C)n(C)n(-c2ccccc2)c1=O
  VDR inh: -6%

Next records
Cc1noc(C)c1NC(=O)N(C)C[C@H]1Oc2c(NC(=O)C3CCCCC3)cccc2C(=O)N([C@H](C)CO)C[C@@H]1C
  VDR inh: -5%

CC(C)(C)c1ccc(S(=O)(=O)C(C)(C)C)cc1
  VDR inh: 8%

O=c1[nH]n2c(=O)c3c([nH]c2c1N=Nc1ccccc1)CCC3
  VDR inh: 8%

O=C(O)c1ccc2nnn(O)c2c1
  VDR inh: 7%

CCCCN1CC(c2nc3ccccc3n2CCCCOc2cc(C)ccc2C)CC1=O (configuration not stated)
  VDR inh: 13%

O=C(O)c1cccc2c1-c1ccc(Cl)cc1C2=O
  VDR inh: -12%

Cc1ccsc1C(C(=O)NC(C)(C)C)N(C(=O)c1csnn1)c1ccccc1 (configuration not stated)
  VDR inh: -7%

O=C(CN(C(=O)Cn1nnc(-c2cccs2)n1)c1ccc2c(c1)OCCO2)NCC1CCCO1 (configuration not stated)
  VDR inh: 12%

O=C(NCCc1ccc(F)cc1)c1cccs1
  VDR inh: 5%

COc1ccccc1CNCc1ccc(C(=O)O)s1
  VDR inh: -1%

CSc1nc(Nc2ccc(Cl)cc2)c(C#N)c(=O)[nH]1
  VDR inh: -2%

Cc1cc(C)cc(OCCn2c(C3CC(=O)N(c4ccccc4Cl)C3)nc3ccccc32)c1 (configuration not stated)
  VDR inh: 6%

CCN(CC)S(=O)(=O)c1cccc(S(=O)(=O)N2CCCCC2)c1
  VDR inh: 8%

CC(=O)c1c(C)oc2c(Cl)cc(NS(=O)(=O)c3ccc(Cl)cc3)cc12
  VDR inh: 8%

Cn1c(C(=O)Nc2ccc(Cl)cc2)cc2cc(Cl)ccc21
  VDR inh: ?

An excerpt of these results, with the structure last:
VDR inh,structure
8%,CC(=O)c1c(C)oc2c(Cl)cc(NS(=O)(=O)c3ccc(Cl)cc3)cc12
13%,CCCCN1CC(c2nc3ccccc3n2CCCCOc2cc(C)ccc2C)CC1=O (configuration not stated)

Remaining list, next part.
| SMILES | VDR inh |
| --- | --- |
| O=C(CN1CCN(CC(=O)Nc2ccccn2)CC1)Nc1ccccn1 | -6% |
| CN(C)CCCn1c(=S)[nH]c2ccccc2c1=O | -10% |
| Cc1ccnc2nc(C(=O)OC(C)C(=O)NCc3ccccc3)nn12 (configuration not stated) | -2% |
| C=CCNC(=S)Nc1cccc2ccccc12 | 10% |
| c1ccc(-c2nc(-c3cccs3)[nH]c2-c2ccccc2)cc1 | 2% |
| Cc1ccc(C)c(N(CC(=O)NCc2ccc3c(c2)OCO3)C(=O)CCC(=O)Nc2ccccn2)c1 | 3% |
| CCCNC(=O)C(C)n1nc(C)c2c(C)n(-c3ccccc3)nc2c1=O (configuration not stated) | 4% |
| COC(=O)COc1ccc(NC(=O)Cn2nc(-c3ccccc3)c3ccccc3c2=O)cc1 | -28% |
| Cc1c(CNCc2ccc(Cl)cc2)c(C(=O)O)c(C)n1Cc1ccc(F)cc1 | -3% |
| O=C(NC1CCCCC1)C(c1ccccn1)N(C(=O)c1csnn1)c1ccccc1F (configuration not stated) | -17% |
| Cc1ccccc1NC(=O)C1Cc2ccccc2CN1C(=O)OCc1ccccc1 (configuration not stated) | 1% |
| COc1ccc(C)cc1NC(=O)c1cc2c(s1)-c1ccccc1SC2 | 9% |
| Cc1ccc(Cl)cc1NC(=O)c1cc2ccccc2cc1O | -18% |
| Cc1cc(NC(=O)C2CCCCC2)nc2c1c(=O)oc1ccccc12 | 7% |
| Cc1cc(C)n2nc(SCCC(=O)NCCc3ccccc3)nc2n1 | -6% |
| NC(=O)c1cc(S(=O)(=O)NCc2cccc(Br)c2)cs1 | 0%&-3% |
| COc1ccc(NC(=O)CSc2nnc(-c3cccs3)n2C)cc1OC | -1% |
| CC(C)CCCCCCc1ccc(O)cc1 | 10% |
| COC(=O)c1ccc2nc(C(F)(F)F)[nH]c2c1 | 3% |
| CCC(Cc1ccccc1)NC(=O)Cn1ncc2c3ccccc3n(Cc3ccccc3)c2c1=O (configuration not stated) | 8% |

Of the compounds above, these have a furan ring, fused or not:
| SMILES | VDR inh |
| --- | --- |
| CCOC(=O)c1[nH]c(C)c(/C(O)=C2\C(=O)C(=O)N(CCN(C)C)C2c2ccc(C)o2)c1C (configuration not stated) | 5% |
| CN(CC(=O)Nc1ccc(Cl)c(C(F)(F)F)c1)C(=O)/C=C/c1ccco1 | -6% |
| Cc1cc(C(=O)N/N=C/c2ccc(-c3ccccc3Cl)o2)n[nH]1 | -6% |
| COc1ccc(-c2ccc(CCC(=O)O)n2Cc2ccco2)cc1 | 0% |
| CC(=O)c1c(C)oc2c(Cl)cc(NS(=O)(=O)c3ccc(Cl)cc3)cc12 | 8% |

Additional structures.
| SMILES | VDR inh |
| --- | --- |
| Cc1sc2c(c1C)C(=O)/C(=C\Nc1ccccn1)S(=O)(=O)N2C | -10% |
| CCC(C(=O)NCCc1ccc(OC)c(OC)c1)n1nc(C)n2c(cc3occc32)c1=O (configuration not stated) | -5% |
| COc1cc(OC)c(NC(=O)c2nc(-c3ccncc3)no2)cc1Cl | 12% |
| COS(C)(=O)=O | 2% |
| COc1cc(NC(=O)COC(=O)CNC(=O)c2cc(C)cc(C)c2)c(C)cc1[N+](=O)[O-] | 15% |
